Screening results: PubChem, ICCB-Longwood Screening Facility, Harvard Medical School
Mtb MbtI inh: MbtI salicylate synthase inhibitors, primary screen, biochemical, fluorescence intensity. AID 493033, 2011. purified MbtI enzyme, fluorescence intensity read-out. inhibition, %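 (about 17 µg/mL by stock and volumes)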. actives 0.89% (n = 100,000);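 active = above 50% in both replicates, above 80% if mildly self-fluorescent; inactive = the rest, strongly fluorescent compounds included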;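 also: 0% = mean of negative and 100% = mean of positive controls; one replicate is shown; some compounds called inactive have numbers as strong as hits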
Target sequence (P9WFX0 whole entry, looked up): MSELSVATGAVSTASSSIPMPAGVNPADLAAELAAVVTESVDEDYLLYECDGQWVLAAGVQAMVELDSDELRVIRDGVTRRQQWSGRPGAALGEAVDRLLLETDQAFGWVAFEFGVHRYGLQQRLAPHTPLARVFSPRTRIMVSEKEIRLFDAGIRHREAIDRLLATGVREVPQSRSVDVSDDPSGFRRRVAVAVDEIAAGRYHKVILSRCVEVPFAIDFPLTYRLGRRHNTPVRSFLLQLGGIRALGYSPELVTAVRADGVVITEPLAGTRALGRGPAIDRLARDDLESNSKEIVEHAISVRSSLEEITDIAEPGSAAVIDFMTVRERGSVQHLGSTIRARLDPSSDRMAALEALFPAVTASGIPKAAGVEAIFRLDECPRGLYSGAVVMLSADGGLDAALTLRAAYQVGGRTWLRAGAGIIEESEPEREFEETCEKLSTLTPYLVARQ
PV pol inh: poliovirus RdRp elongation inhibitors, primary screen, biochemical, fluorescence polarization, total intensity. Genome polyprotein (Poliovirus type 1 (strain Mahoney)), P03300. poliovirus polymerase elongation; stronger effect = lower value. % elongation, % (compound at 16.7 µg/mL). actives 0.66% (n = 150,000); in the data active = % elongation below about 90%; also: some results filed as inactive read as strong as hits
Target sequence (P03300 1749-2209 limits assumed): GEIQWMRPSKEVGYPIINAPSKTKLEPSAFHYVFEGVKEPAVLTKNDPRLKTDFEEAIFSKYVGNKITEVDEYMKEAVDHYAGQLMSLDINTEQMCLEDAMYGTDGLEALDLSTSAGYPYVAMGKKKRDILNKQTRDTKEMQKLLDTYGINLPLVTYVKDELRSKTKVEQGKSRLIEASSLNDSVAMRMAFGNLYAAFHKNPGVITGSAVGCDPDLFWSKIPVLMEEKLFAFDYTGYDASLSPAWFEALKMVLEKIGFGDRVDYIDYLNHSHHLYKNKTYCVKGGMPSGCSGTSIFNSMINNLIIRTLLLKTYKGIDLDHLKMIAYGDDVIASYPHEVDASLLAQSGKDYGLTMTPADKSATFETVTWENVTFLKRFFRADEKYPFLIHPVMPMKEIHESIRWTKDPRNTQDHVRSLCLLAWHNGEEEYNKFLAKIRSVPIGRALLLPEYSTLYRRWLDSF
Mtb MenB inh: M. tuberculosis MenB inhibitors, primary screen, biochemical, absorbance; 1,4-dihydroxy-2-naphthoyl-CoA synthase (Mycobacterium tuberculosis (strain ATCC 25618 / …; MenB enzyme assay, absorbance read-out; some hits fall short of the stated cut; inhibition, %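 (about 12 µg/mL by stock and volumes)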; actives 0.43% (n = 100,000);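 active = mean of two replicates above 30%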;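 also: 0% = no compound and 100% = wells with inactive enzyme; the first replicate is given; strong numbers were not always called active; inactives centre near -10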
PV pol inh intensity: also measured in PV pol inh; calls as there; % elongation; measured here: total intensity read-out; formula for this scale not given here;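 total fluorescence in place of polarization; lower means less elongation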
Numbers without * were called inactive; / = no result given.

Under each structure – Mtb MbtI inh, PV pol inh, PV pol inh intensity, Mtb MenB inh
COc1ccc(Oc2ccc(C(F)(F)F)cc2NS(=O)(=O)c2cccc3nonc23)cc1
→ -13, 103, 100, 4
COc1ccc(N(C(=O)c2snc(C(N)=O)c2N)C(C(=O)NCc2ccc(F)cc2)c2ccc(C)o2)c(OC)c1 (configuration not stated)
→ -14, 104, 102, -42
CN(C)CCCNCc1ccco1
→ -2, 103, 107, -22
COc1cccc(NC(=O)C2C3C=CC(C4CC34)C2C(=O)O)c1 (configuration not stated)
→ -6, 99, 97, 2
Cc1ccc(C(=O)C2=C(N)OC3=C(C(=O)CC(C)(C)C3)C2c2ccccc2)cc1 (configuration not stated)
→ 10, 99, 98, 14
CN(C(=O)c1ccccc1)C1CCCCC1
→ -12, 103, 110, 13
Cc1cccc(OC(C)C(=O)O)c1 (configuration not stated)
→ -2, 101, 97, /
COc1ccccc1NC(=O)CN(Cc1ccco1)C(=O)c1ccc(-n2c(C)ccc2C)cc1
→ 20, 107, 103, 0
CN(C)c1ccc(C(=O)OCC(=O)Nc2ccc(F)cc2F)cc1
→ -10, 101, 108, /
O=C1/C(=C/c2ccc(OC(F)F)cc2)NC(=S)N1Cc1ccco1
→ 13, 106, 100, -70
COC(=O)C1=C(C)NC(C)=C(C(=O)OC)C1C(=O)OCC(=O)Nc1cccc2nsnc12
→ -4, 103, 108, -5
O=C(Cc1ccc(F)cc1)N/N=C/c1ccc(C(=O)O)cc1
→ 22, 102, 100, 2
COCCn1c(SCc2nc3ccccc3o2)nc2ccccc21
→ -3, 108, 107, -40
Cc1cccc(N(CC(=O)Nc2ccccc2)S(C)(=O)=O)c1C
→ -6, 101, 96, -12
CCOC(=O)c1ccc2c(c1)ncn2/C=C\NC(=O)c1ccc(Cl)cc1
→ 17, 102, 102, /
O=C(Cn1ncc2ccccc21)Nc1cc(-c2cccc(Cl)c2)no1
→ -2, 102, 104, -19
COC(=O)c1ccsc1NC(=O)c1ccc(C)cc1
→ 10, 107, 111, -9
Cc1nc(-c2ccc(CN)s2)cs1
→ 23, 98, 99, -20
O=S(=O)(c1ccc(C(F)(F)F)cc1)n1nccc1-c1cc(-c2ccccc2)no1
→ -11, 103, 102, -22
O=C(Oc1ccc(Cl)cc1)C1c2ccccc2Oc2ccccc21
→ 4, 103, 108, -38
O=C(O)c1ccc2nc(N3CCCCC3)sc2c1
→ 91, 100, 98, -3
CC1=NOC(=O)/C1=C/c1ccc(-c2ccc(Cl)cc2)o1
→ 53, 101, 100, -4
COCC(=O)NCc1ccc2c(c1)OCO2
→ 3, 104, 104, 30
CC(C)NS(=O)(=O)c1ccc(Br)c(C(=O)OCC(=O)Nc2nnc(-c3ccccc3)o2)c1
→ 9, 109, 109, -35
CCCCN(C)C(=O)Cn1ncc2c1-c1ccccc1OC2
→ 0, 102, 102, -3
O=C1CC[C@@]2(O)[C@H]3Cc4ccc(O)c5c4C2(CCN3CC2CC2)[C@H]1O5
→ -13, 102, 104, -5
Cc1cc(I)ccc1NC(=O)c1ccccc1N(C)S(C)(=O)=O
→ -10, 100, 103, 3
Cc1ccc(C)c(N2CCN(c3cc(C)nn4cnnc34)CC2)c1
→ -1, 104, 100, -39
CC1CCCN(C2(O)C(=O)N(Cc3ccccc3)c3ccccc32)C1 (configuration not stated)
→ -9, 102, 101, -5
CCCN(CCC)Cc1csc2c1CCCC2
→ -4, 104, 95, -29
CCOC(=O)C1C(=O)C=C(c2ccco2)CC1c1ccc(CC)cc1 (configuration not stated)
→ 13, 99, 94, -25
Cc1ccccc1NC1CC(C)N(C(=O)CN2C(=O)c3ccccc3C2=O)c2c(C)cccc21 (configuration not stated)
→ -4, 103, 107, 4
O=C(CSC1CCCC1)c1ccco1
→ 2, 101, 105, /
O=C(COC(=O)C1CC1)c1ccc(OC(F)F)cc1
→ -22, 104, 106, 3
CCc1ccc(NC(=O)CSc2nnc3[nH]c(=O)ccn23)cc1
→ 7, 100, 99, -1
Cc1nn(-c2ccccc2)c(Cl)c1C=C(C#N)C#N
→ 4, 97, 104, -21
Nc1ccc(Sc2nc3ccccc3[nH]2)c(Cl)c1
→ 12, 113, 107, -11
O=C(COc1ccc2ccccc2c1CN1CCOCC1)N1CCc2ccccc21
→ 3, 99, 106, -16
OCCSC1SC(=S)SC1SCCO (configuration not stated)
→ 6, 96, 99, -45
c1ccc2nc(N3CCNCC3)ccc2c1
→ -26, 101, 100, 0
CC1Cc2ccccc2N1C(=O)COc1ccc(-n2cnnn2)cc1 (configuration not stated)
→ 5, 103, 93, -24
Cc1c(C(=O)NC2CCCCC2)sc2nc(-c3ccc(F)cc3)cn12
→ -4, 101, 104, -15
CC1CCCC(NC(=O)CSC(=O)c2ccccc2)C1C (configuration not stated)
→ 9, 99, 95, /
COc1ccccc1CN1COc2cc3c(cc2C1)OCO3
→ 5, 101, 100, 5
CCN(CC)c1c(C#N)c(SCC(=O)c2cccs2)cc2c1CCCC2
→ /, 102, 101, -6

Among those listed so far, these have two or more sulfur atoms:
Under each structure – Mtb MbtI inh, PV pol inh, PV pol inh intensity, Mtb MenB inh
Cc1nc(-c2ccc(CN)s2)cs1
→ 23, 98, 99, -20
OCCSC1SC(=S)SC1SCCO (configuration not stated)
→ 6, 96, 99, -45
CCN(CC)c1c(C#N)c(SCC(=O)c2cccs2)cc2c1CCCC2
→ /, 102, 101, -6

More compounds.
Under each structure – Mtb MbtI inh, PV pol inh, PV pol inh intensity, Mtb MenB inh
CCCNS(=O)(=O)c1ccc(OCC(=O)NCc2ccccn2)cc1
→ -8, 101, 102, 7
O=C(O)CCN=C1NC(=O)CS1
→ 2, 102, 97, -9
O=C(c1ccc(Br)o1)N1CCN(c2ccccc2)CC1
→ -11, 102, 104, -4
Cc1nc2ncnn2c(C)c1CCC(=O)NC1=NCCS1
→ -6, 107, 109, -7
COC(=O)c1c(NC(=S)NCc2ccco2)sc2c1CCC2
→ 61*, 99, 104, -11
O=C1CC(c2n[nH]c(=S)o2)CN1c1ccc(Cl)cc1 (configuration not stated)
→ 82*, 99, 102, 17
COC(=O)CN1C=C(C(=O)OC)C(c2ccc(O)cc2)C(C(=O)OC)=C1
→ 105, 103, 99, -8
Nn1cnnc1SCc1ccccc1
→ -2, 103, 105, 2
CC1CCCN(C(=O)Cc2cccc3ccccc23)C1 (configuration not stated)
→ -5, 100, 103, -7
CC(=O)N1CCOc2ccc(S(=O)(=O)NCc3ccccc3)cc21
→ -6, 102, 103, 16
CC(=O)N1C=Cc2ccccc2C1CC(=O)O (configuration not stated)
→ 8, 102, 105, -6
CSc1ncc(C(=O)N2CCN(c3ccccc3F)CC2)c(C)n1
→ -12, 104, 108, -29
CC(C)(C)NC[C@@H](O)COc1nsnc1N1CCOCC1
→ -21, 100, 102, 7
Cc1nn2c(nc1=O)NNC2(C)c1ccccc1 (configuration not stated)
→ 3, 101, 101, -8
COc1cccc(-c2cc(C(=O)NCC(C)C)on2)c1
→ -26, 101, 102, 12
COc1ccccc1CC(=O)Nc1ccc(-c2noc(COc3ccc(Cl)c(C)c3)n2)cc1
→ 3, 104, 99, 2
CC(C)CCNC(=O)c1cccc2c1-c1ccccc1C2=O
→ -8, 105, 109, -10
C=CCN(CC=C)CC(O)Cn1cnc2c1c(=O)n(C)c(=O)n2C (configuration not stated)
→ -3, 108, 110, -5
CN(C(=O)Nc1ccccc1)c1c2c(nn1C)CCCC2
→ 6, 103, 97, 15
CS(=O)(=O)c1ccc(NC(=O)c2ccc(Br)o2)cc1
→ 11, 107, 126, -13
COc1ccccc1/C=C1\SC(N2CCN(c3ccccc3)CC2)=NC1=O
→ 1, 100, 106, 2
CCOC(=O)c1cc(-c2ccccc2)n(CCC(=O)Nc2ccccc2N2CCN(C)CC2)c1C
→ -33, 100, 99, -10
N#Cc1cccc(S(=O)(=O)N2CCCC2c2ccc3c(c2)OCCCO3)c1 (configuration not stated)
→ -12, 104, 107, -45
C[N+]1(C)C2CCC1CC(OC(=O)c1ccccc1)C2 (configuration not stated)
→ -6, 105, 107, 1
Cc1cc(C)cc(NC(=O)N2CCSc3ccccc32)c1
→ -17, 99, 102, -7
O=C(O)CC1=C(c2ccc(F)cc2)CCC1=O
→ 16, 100, 101, 25
O=C(O)c1ccc(Oc2ccccc2)cc1
→ /, 106, 95, 6
CCOCCC(=O)Nc1ccc2c(c1)OCCO2
→ -11, 101, 101, -20
CC1=C(C(=O)Nc2cc(C)ccc2C)C(c2ccc(N(C)C)cc2)NC(=S)N1 (configuration not stated)
→ 29, 98, 95, -22
O=C1c2cccnc2C(=O)N1CCc1ccc(S(=O)(=O)N2CCCC2)cc1
→ -8, 105, 106, -17
Nc1nn(-c2ccccc2)nc1NC=O
→ -118, 104, 103, 3
Cc1cc(N2CCOCC2)ccc1/C=C1\NC(=O)N(Cc2ccccc2F)C1=O
→ 13, 104, 104, 8
NS(=O)(=O)c1ccc(CCNc2cc(C(=O)N3CCOCC3)c3ccccc3n2)cc1
→ 102, 105, 109, -27
Cc1ccc(Cl)cc1NC(=O)Cc1nn(C)c(=O)c2ccccc12
→ -2, 102, 100, -57
COC(=O)c1ccc(N=C/C(Br)=C/c2ccccc2)cc1
→ -34, 100, 95, /
O=C(COc1ncnc2ccc(Br)cc12)NCCN1C(=O)CSC1=O
→ 3, 102, 94, 2
CC(C)(C)c1cc2c(=O)[nH]nc(N)c2c(=O)[nH]1
→ -5, 104, 105, -28
O=C(O)CC1ON(c2ccccc2)C(=S)N1c1ccccc1 (configuration not stated)
→ -3, 104, 100, -23
Cc1c(-c2c(Cl)cccc2Cl)noc1C(=O)CN=S(C)(=O)c1ccc(C(F)(F)F)cn1 (configuration not stated)
→ -9, 103, 102, -18
CCOC(=O)C1=C(C)NC(SCC(N)=O)=C(C#N)C1C1CC=CCC1 (configuration not stated)
→ -5, 97, 94, -13
COCCN1C=C(C(=O)OC)C(c2ccccc2Cl)C(C(=O)OC)=C1
→ 5, 99, 102, 6
O=C(O)CCC1NC(=O)NC1=O (configuration not stated)
→ -9, 101, 103, -9
COc1cc2c(cc1OC)C(C)N(C(=O)/C=C/c1ccccc1)CC2 (configuration not stated)
→ 17, 104, 103, -14
Cn1c(-c2ccccc2)c(/C=N/NC(=O)C2CC2)c2ccccc21
→ 2, 101, 105, -49
Cc1ccc2c(n1)sc1c(=O)n(-c3ccccc3)nnc12
→ -20, 100, 103, 11

Complete entries from above:
`Cc1cc(N2CCOCC2)ccc1/C=C1\NC(=O)N(Cc2ccccc2F)C1=O` is entered as Mtb MbtI inh: 13; PV pol inh: 104; PV pol inh intensity: 104; Mtb MenB inh: 8
`Cc1ccc(Cl)cc1NC(=O)Cc1nn(C)c(=O)c2ccccc12` is entered as Mtb MbtI inh: -2; PV pol inh: 102; PV pol inh intensity: 100; Mtb MenB inh: -57

(more compounds)
Under each structure – Mtb MbtI inh, PV pol inh, PV pol inh intensity, Mtb MenB inh
O=S(=O)(NCC1CCN(S(=O)(=O)c2ccccc2)CC1)c1cccc(C(F)(F)F)c1
→ -2, 100, 103, 1
CC(C)c1nnc(NC(=O)C2CCN(C(=O)c3ccco3)CC2)s1
→ 64, 105, 100, -58
CN(Cc1ccccc1)C(=O)Nc1cn(C)c(=O)c2ccccc12
→ 114, 100, 102, 2
c1ccc(-c2cnc(-c3ccccc3)cn2)cc1
→ 2, /, /, -18
O=C(O)c1cccc(S(=O)(=O)N2CCCCC2)c1
→ -14, 99, 102, -54
Cc1cc2nc(Nc3ccccc3)c3ccccc3n2n1
→ -45, 98, 102, 1
Nc1nc(=Nc2ccccc2)ss1
→ /, 95, 99, -94
Cc1ccc(NC(=O)CC2Sc3ccc(C(F)(F)F)cc3NC2=O)c(C)c1 (configuration not stated)
→ -7, 103, 101, -6
Cc1noc(C)c1COC(=O)C1c2ccccc2Oc2ccccc21
→ 6, 103, 104, -15
Cc1cc(C(=O)Nc2ccccc2C(=O)O)c(C)o1
→ -21, 101, 100, 6
CNC(=O)c1ccc(N2C(=O)C3C4C=CC(C4)C3C2=O)cc1 (configuration not stated)
→ -9, 104, 101, -15
CCCCC(=C1C(=O)CCCC1=O)N1CCCC1
→ 1, 93, 103, -14
CCc1noc(C)c1C(=O)OCC(=O)c1ccc(Br)s1
→ 6, 115, 110, 8
COc1ccc(NC(=O)CSc2nc(-c3ccccc3)cc(=O)[nH]2)cc1
→ 3, 105, 107, -38
CCOc1cc(/C=N/NC(=O)c2nnn(-c3nonc3N)c2C)ccc1OC(=O)N1CCOCC1
→ 8, 101, 102, 9
CCc1c(C)c(C#N)c2nc3ccccc3n2c1-n1nc(C)cc1C
→ -10, 103, 99, -28
CCCn1cnc2sc(C(N)=O)c(C)c2c1=O
→ 4, 101, 106, -7
CC(C)(C)NC(=O)CSc1nnc(C(F)(F)F)n1N
→ 1, 98, 98, -14
CCC1CCCCN1C(=O)Cn1cc(S(=O)(=O)N(C)C)ccc1=O (configuration not stated)
→ -2, 107, 104, -19
COc1ccc(C2C(C(=O)N3CCCC3)c3cc(OC)c(OC)cc3C(=O)N2C)cc1 (configuration not stated)
→ 4, 103, 99, -4
O=C(NCCN1CCN(c2nccc(C(F)(F)F)n2)CC1)c1cccs1
→ -10, 105, 102, -11
CC(=O)Nc1ccc(S(=O)(=O)N2CCC3(CC2)OCCO3)cc1
→ -4, 100, 94, -16
OC1CCCN(CC(O)c2ccccc2)C1 (configuration not stated)
→ -3, 104, 104, -11
O=C1NC(=O)/C(=C\c2cn(Cc3ccccc3)nc2-c2cccnc2)S1
→ -4, 102, 111, -8
CC1(C)CCc2cc(S(=O)(=O)N(Cc3ccccn3)Cc3ccccn3)ccc2O1
→ -13, 104, 105, -13
